Screening results from PubChem.
Yeast UUG start: yeast start codon fidelity modulation; S. cerevisiae UUG-firefly luciferase reporter, luminescence/redox ratio; activity score, % at 18.7 µM; 350,000 compounds, 0.13% hits; AID 602363;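 active means replicate mean at a twofold rise or more, about +100% in these data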;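 further: firefly luciferase made from a UUG start codon reports start codon fidelity; reporter light over untreated wells divided by growth signal over untreated wells; some hits fall short of that in this replicate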
eIF4H FP inh: inhibitors of RNA binding by human eIF4H; Q15056; eIF4H fluorescence polarization binding assay; inhibition, % at 35 µM; 290,000 compounds, 0.94% hits; AID 2012;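 active means 50% or more with normal probe brightness, or confirmed in later tests; inconclusive means above 50% with abnormal brightness, or retests that disagree; inactive means below 50% or failed in later tests; about a fifth of its hits are not listed in these tables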;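 further: calls also rest on retests at 20 µM and on dose response follow-up; 0% = protein and probe with vehicle and 100% = probe without protein; strong numbers were not always called active; many hits fall short of the cut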
Rce1 inhib: inhibitors of yeast Ras-converting enzyme | Q03530 | yeast membranes, quenched prenylated peptide cleavage fluorescence | calls only | 290,000 compounds, 0.27% hits | AID 2563;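 active means fall in fluorescence gain of 50% or more versus controls, with final raw signal at or below 3038400; inconclusive means same 50% fall but final raw signal above 3038400; inactive means fall in fluorescence gain under 50%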;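 further: plate controls were neutral control wells for no effect and wells lacking membranes for full effect; tested at 10 µM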
Target sequence (Q03530 whole entry, looked up): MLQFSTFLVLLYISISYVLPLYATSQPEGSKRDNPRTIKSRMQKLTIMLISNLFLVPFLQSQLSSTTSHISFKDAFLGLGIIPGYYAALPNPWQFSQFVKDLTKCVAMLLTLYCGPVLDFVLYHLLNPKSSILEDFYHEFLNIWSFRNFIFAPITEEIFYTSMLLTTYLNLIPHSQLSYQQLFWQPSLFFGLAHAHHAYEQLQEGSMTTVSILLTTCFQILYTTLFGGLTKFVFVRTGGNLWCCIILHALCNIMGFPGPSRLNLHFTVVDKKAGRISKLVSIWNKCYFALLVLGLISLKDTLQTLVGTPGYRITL
PABP polyA inh: blocks human PABP binding to poly(A) RNA; 290,000 compounds, 1% hits; fluorescence polarization; P11940; inhibition, % at 35 µM;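 active means 50% or more with normal probe brightness, or confirmed in later tests; inconclusive means above 50% with abnormal brightness, or retests that disagree; inactive means below 50% or failed in later tests; about a fifth of its hits are not listed in these tables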;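 further: calls also rest on retests at 20 µM and on dose response follow-up; controls were probe without protein and protein plus probe with vehicle; some compounds called inactive have numbers as strong as hits; many hits fall short of the cut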
HIV Env fusion: HIV envelope-mediated fusion inhibition; HeLa-JRFL Env/CEM21 cell fusion, luciferase; inhibition, % at 12.3 µM; 360,000 compounds, 1.1% hits;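 active means mean replicate inhibition score of at least 50 and every replicate individually at or above 50; inconclusive means only one of the two criteria met; inactive means mean below 50 and not all replicates reaching 50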;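 further: 0% = plate neutral controls and 100% = maraviroc near 300 nM; one replicate is shown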
MT1-MMP act inh: blocks activation of human MT1-MMP. P50281. HT1080 RFP-PRO-GFP cells, GFP/RFP ratio fluorescence, overnight; percent of plate control window, DMSO zero. GFP/RFP ratio change, % at 20 µM. 360,000 compounds, 0.061% hits. AID 651647;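 active means GFP/RFP ratio change of at least 30% with cell ATP level not reduced by more than half and red fluorescence within 50% of control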; further: strong numbers were not always called active
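Read-out: GFP/RFP fluorescence ratio; Test system: RFP-PRO-GFP reporter HT1080 cells; Compound dosing: single-point 20 µM compound, 1% DMSO; Times: overnight compound exposure at 37 °C.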
CSC inhib: cancer stem cell inhibition; cancer stem cell-like cells viability, luminescence; inhibition, % at 7.5 µM; 300,000 compounds, 1.1% hits;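 active means mean at 75% or more and at least half the replicates too; inconclusive means mean and replicates disagree; tested in HMLE shEcad cells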;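 further: 0% = median of negative and 100% = median of positive control wells; the first replicate is given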
eIF4H FP inh retest: second read-out of eIF4H FP inh, no call of its own (marks repeat the call); inhibition, %; compound at 20 µM; confirmation average;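 mean of two retest wells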
PABP polyA inh retest: also measured in PABP polyA inh; calls as there; inhibition, %; compound at 20 µM; confirmation repeats;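 mean of two retest wells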
MT1-MMP act inh RFP: further read-out of MT1-MMP act inh, marked with its call; RFP signal change, %; measured here: RFP expression control read;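 0 = vehicle wells; hits needed this value within 50% of zero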
* hit, by the source's call; i = inactive; ? = inconclusive; . = not tested or not shown.

SMILES | Yeast UUG start | eIF4H FP inh | Rce1 inhib | PABP polyA inh | HIV Env fusion | MT1-MMP act inh | MT1-MMP act inh RFP | CSC inhib | others
COCCN(Cc1ccccc1)C(=O)c1cccc(S(=O)(=O)N(C)c2c(C)n(C)n(-c3ccccc3)c2=O)c1 | 5 | . | i | . | -3 | -1 | -3 | 0
COc1ccc(C2(C)CC(=O)NC2=O)cc1 (stereo unspecified) | -3 | 6 | i | 0 | 2 | 0 | 0 | 0
Cc1ccnc(NC(=O)Cn2cc([N+](=O)[O-])cn2)c1 | . | -5 | i | 3 | -18 | -1 | 1 | -17
COc1ccccc1NS(=O)(=O)c1cccc(C(=O)NNC(=O)c2ccc(=O)[nH]c2)c1 | -4 | . | . | . | . | -4 | 2 | -2
CC1CN=C(N(Cc2ccccc2)C(=O)Nc2ccccc2)S1 (stereo unspecified) | 2 | -2 | i | -4 | . | 0 | 2 | 9
COc1ccc(S(=O)(=O)NC(=O)C2(C)CCN2C(=O)Cc2ccc(C(C)(C)C)cc2)cc1 (stereo unspecified) | 1 | . | . | . | 18 | -2 | 3 | .
COc1cc(C(=S)N2CCOCC2)ccc1OS(=O)(=O)c1ccc(NC(C)=O)cc1 | . | -6 | i | -21 | ? | -1 | -15 | -10
O=C(O)c1cccc(N=NN2CCCCCC2)c1 | 59 | -2 | i | 10 | -57 | -2 | 2 | 3
COc1ccc(/C=C2/C(=O)OCc3cc(OC)c(OC)cc32)c(OC)c1 | . | 8 | i | 5 | 8 | 0 | -6 | -10
Cc1ccc(S(=O)(=O)NCC(=O)OCC(=O)N2CCN(C(=O)c3ccco3)CC2)cc1C | 11 | . | i | . | . | -1 | 1 | -8
O=C(NCCCN1CCOCC1)c1ccc(S(=O)(=O)Nc2ccccc2F)cc1 | -3 | . | i | . | -7 | -1 | 2 | 2
CN(c1ccccc1)S(=O)(=O)c1cccc(NC(=O)c2nn(C)c(=O)c3ccccc23)c1 | -16 | . | . | . | 21 | 5 | -11 | .
O=C(COC(=O)CNS(=O)(=O)c1ccc2ccccc2c1)Nc1ccc2c(c1)OCO2 | . | 3 | i | 19 | -9 | 3 | 4 | 7
CC1(Cc2ccccc2F)C(=O)Nc2c(Cl)ccc(Cl)c21 (stereo unspecified) | -11 | . | . | . | -43 | -1 | 3 | .
O=C(Nc1ccc(NC(=O)c2cccc([N+](=O)[O-])c2)cc1)c1cccc([N+](=O)[O-])c1 | -13 | -10 | i | -7 | 15 | 2 | -1 | -6
Cc1cccc(-c2noc(CCCC(=O)Nc3cccnc3)n2)c1 | 4 | 2 | i | 8 | 13 | 1 | -7 | -13
C=C(C)CSC1=C(C#N)C(c2ccccc2)CC(=O)N1 (stereo unspecified) | -6 | . | i | . | 3 | 0 | -1 | 2
COC(=O)c1cc(NC(=O)CC2C(=O)NCCN2C(=O)c2ccc(F)cc2)cc(C(=O)OC)c1 (stereo unspecified) | 0 | -2 | i | -1 | . | 1 | 2 | -17
C/C(N)=C(/C#N)C(=O)CSc1ncnc2ccccc12 | . | -8 | i | 9 | 33 | -8 | 3 | -2
S=C(NCc1ccc(Cl)cc1Cl)NC1CCCCC1 | . | -10 | i | 2 | -6 | 0 | -6 | 16
CC(NC(=S)Nc1ccccc1)C1COc2ccccc2O1 (stereo unspecified) | . | -17 | i | 20 | -36 | 2 | 0 | -6
C/C(=N\NC(=O)COc1ccc(C(C)(C)C)cc1)c1ccc(N2CCOCC2)cc1 | . | 2 | i | -4 | 20 | 2 | -2 | 19
COC(=O)c1cccc(Oc2cccc(C(F)(F)F)c2)n1 | -14 | 6 | i | 9 | 8 | -3 | -4 | -1
COc1cccc(CN2CCN(Cc3ccon3)CC2CCO)c1 (stereo unspecified) | . | 0 | i | -1 | 1 | -2 | 2 | -3
COc1ccccc1N1CCN(C(=O)C2CCCN(c3ncnc4c3nc3n4CCCCC3)C2)CC1 (stereo unspecified) | 9 | -2 | i | 0 | 2 | 7 | -3 | 5
O=C(C1CCCCN1S(=O)(=O)c1ccccc1)N1CCN(C(c2ccccc2)c2ccccc2)CC1 (stereo unspecified) | 1 | 0 | i | -10 | . | -25 | -17 | 7
O=C(C1CN(C(=O)c2cc3cc(Cl)ccc3o2)c2ccccc2O1)N1CCCCC1 (stereo unspecified) | -2 | . | . | . | 20 | -1 | -17 | .
CC(Oc1ccc2c(-c3ccccc3)cc(=O)oc2c1)C(=O)N1CCC[C@@H]1C(N)=O (stereo partly specified) | -3 | 1 | i | 12 | . | 1 | 5 | -13
O=C(Nc1cccc(S(=O)(=O)Nc2ccccc2Cl)c1)c1ccc(N2CCCC2)c([N+](=O)[O-])c1 | . | -11 | i | -19 | . | 2 | -6 | 6
COc1cc(C(=O)N[C@@H](C)C(=O)NCc2ccco2)cc(OC)c1OC | -19 | 1 | i | -6 | -8 | 1 | 2 | 11
Cn1c(SCC(=O)Nc2ccc3cn[nH]c3c2)nnc1-c1cnccn1 | -6 | 0 | i | 0 | . | 2 | 3 | 2
CN(C)S(=O)(=O)N1CCC(Oc2cccc(C(=O)N3CCCCCCC3)c2)CC1 | 23 | 13 | i | 12 | 37 | -1 | -6 | 33
CCN(CC)C(=O)c1sc(NC(=O)c2ccc3c(c2)OCO3)c(C#N)c1C | -5 | 1 | i | 1 | 19 | 12 | 9 | -7
COc1ccc(C(=O)N2CCOCC2)cc1S(=O)(=O)N1CCCc2ccccc21 | . | 1 | i | -13 | ? | -5 | -3 | -8
CCn1c(SCC(=O)NCc2ccccc2)nc2c(c1=O)SC(C)C2 (stereo unspecified) | -7 | -6 | i | -2 | 6 | 0 | 4 | 5
O=C(NCCc1nc2ccccc2[nH]1)Nc1ccccc1 | -10 | 3 | i | 2 | -82 | -4 | 4 | 5
CCOc1ccc(CCNC(=O)Cn2cccc2C(=O)c2ccccc2)cc1OCC | . | -7 | i | 8 | 3 | 4 | -1 | -3
CCN1C(c2ccccc2)=C(c2ccccc2)S/C1=C\C=C1/SC(=S)N(C)C1=O | . | . | i | . | 21 | 31 | 89 | .
Cc1ccc(C2=CC(=O)C[C@H](c3ccc4c(c3)OCO4)C2)cc1 | -8 | . | . | . | -1 | 3 | -2 | 42
CCOc1ccc(NC(=O)COc2ccc(C(=O)NCc3cccc(OC)c3)cc2OC)cc1 | 3 | . | . | . | -5 | 3 | -3 | -5
CN(C)S(=O)(=O)N1CCC(CCCC2CCN(S(=O)(=O)N(C)C)CC2)CC1 | -15 | 5 | i | 11 | . | 4 | -7 | 32
CCOC(=O)CSc1nc2ccccc2c(=O)n1CC | -26 | -2 | i | 3 | i | 0 | 2 | 7
CC1CCCCC1NC(=O)c1ccc(N2CCCC2=O)cc1 (stereo unspecified) | -9 | -4 | i | 4 | -15 | 3 | 2 | .
O=C(/C=C/c1ccccc1[N+](=O)[O-])NCc1ccncc1 | . | -19 | i | 1 | -1 | 3 | 3 | -44
COc1ccc(OC)c(S(=O)(=O)N2CCNCC2)c1 | 7 | -6 | i | -4 | -7 | -7 | -5 | -9
Cc1ccc(S(=O)(=O)N2CCC(=O)N(C(CO)Cc3ccccc3)CC2)cc1 (stereo unspecified) | 48 | -8 | i | 17 | 18 | -3 | 7 | -5
COc1ccc(C(=O)c2coc3ccc(OC(C)=O)cc23)cc1 | -8 | 10 | i | 0 | -169 | 2 | -6 | 14
O=C(O)c1ccnc(SCC(=O)c2ccccc2)c1 | . | -7 | i | -2 | 0 | 0 | 5 | 3
COC(=O)C(C)Sc1nc2c(cnn2-c2ccc(F)cc2)c(=O)[nH]1 (stereo unspecified) | 4 | -3 | i | -2 | -3 | 1 | -3 | -7
CC1CCN(CC(=O)Nc2ccc(S(=O)(=O)NC3CC3)cc2)CC1 | -9 | -8 | i | 2 | 0 | -2 | 2 | -15
CN(C)S(=O)(=O)c1cccc(NC(=O)COC(=O)C2(c3ccccc3F)CCCC2)c1 | -5 | -2 | i | 4 | 31 | -7 | -27 | 0
COc1ccc(CC(=O)NC2CCCCCC2)c(OC)c1 | -4 | -1 | i | 1 | -14 | -1 | 1 | -5
O=C(NNC(=O)c1cc(-c2ccc(Cl)c(Cl)c2)nc2ccccc12)Nc1ccccc1 | . | -5 | i | -2 | . | -7 | -20 | 92*
S=C(c1ccc(-c2ccc(Br)cc2)o1)N1CCOCC1 | -12 | 4 | i | 7 | -105 | 3 | -4 | 9
COc1ccc(NC(=O)Cc2c(SC)c3ccccc3n2Cc2ccccc2)cc1 | . | -3 | i | -6 | -7 | 5 | 1 | -1
CCOC(=O)C(C)Sc1nc2c(c(=O)[nH]c(=O)n2C)n1C/C=C(/C)Cl (stereo unspecified) | . | -1 | i | 3 | . | 3 | 3 | -10
COc1ccccc1NC(=O)c1ccc(NS(=O)(=O)c2cccc3cccnc23)cc1 | -18 | 0 | i | 5 | 10 | 0 | -3 | 7
COc1cccc(-c2nc(C(=O)NCCCN3CCOCC3)cc3c2[nH]c2ccccc23)c1 | -18 | 2 | i | 0 | . | 4 | 0 | 5
CC1=C(C(=O)OCCOc2ccccc2)C(c2ccc(C)o2)C2=C(CC(C)(C)CC2=O)N1 (stereo unspecified) | -18 | -7 | i | -13 | . | -6 | -9 | 4
Clc1ccc(CSc2ccc(-c3ccccn3)nn2)cc1 | -26 | -10 | i | 0 | -54 | 12 | -2 | 127*
Following part:
SMILES | Yeast UUG start | eIF4H FP inh | Rce1 inhib | PABP polyA inh | HIV Env fusion | MT1-MMP act inh | MT1-MMP act inh RFP | CSC inhib | others
CCOC(=O)N1CCN(C(=O)CSc2nnc(-c3c[nH]c4ccccc34)n2CCOC)CC1 | -16 | -6 | i | -9 | -29 | 7 | 5 | -6
CCc1cccc(C)c1NC(=O)CSc1nc(C)c(C)o1 | -14 | -4 | i | -1 | 6 | 1 | 1 | -10
NC(=O)Cn1nnc(-c2ccc(CN3CCCCC3)cc2)n1 | . | -5 | i | -4 | -15 | 6 | 7 | -4
Cc1cc(C(C)(C)C)oc1C(=O)N(CC(=O)NC1CCCC1)Cc1ccccc1 | -7 | 6 | i | 2 | 27 | -5 | -10 | .
O=C(NCCCN1CCCC1=O)c1cccc(S(=O)(=O)NCc2ccccc2)c1 | . | . | i | . | -10 | 2 | 2 | -9
CN1CCN(NC(=S)NC2CCCCC2)CC1 | . | 87* | i | 0.9* | . | -2 | 1 | -13 | eIF4H FP inh retest=90*;PABP polyA inh retest=85*
COC(=O)CCCCNC(=O)Nc1ccccc1 | . | 7 | i | -3 | -8 | -1 | -6 | -17
CC(c1ccccc1)C1CC(=O)N(c2cc(Cl)ccn2)C1=O (stereo unspecified) | 0 | -3 | i | -6 | -1 | -1 | -2 | -5
COCCCNC(=S)NNC(=O)c1cc(-c2cccnc2)nc2ccccc12 | -17 | 3 | i | 4 | 8 | -6 | -4 | 0

Structural class, those above containing a tert-butyl group.
SMILES | Yeast UUG start | eIF4H FP inh | Rce1 inhib | PABP polyA inh | HIV Env fusion | MT1-MMP act inh | MT1-MMP act inh RFP | CSC inhib | others
COc1ccc(S(=O)(=O)NC(=O)C2(C)CCN2C(=O)Cc2ccc(C(C)(C)C)cc2)cc1 (stereo unspecified) | 1 | . | . | . | 18 | -2 | 3 | .
C/C(=N\NC(=O)COc1ccc(C(C)(C)C)cc1)c1ccc(N2CCOCC2)cc1 | . | 2 | i | -4 | 20 | 2 | -2 | 19
Cc1cc(C(C)(C)C)oc1C(=O)N(CC(=O)NC1CCCC1)Cc1ccccc1 | -7 | 6 | i | 2 | 27 | -5 | -10 | .

This is a random part of the collection, and some 3% of all compounds hit somewhere here.
